# FPR binding – FPR binders displacing fluorescent formyl peptide, primary screen, U937-FPR cells, fMLFK-FITC, flow cytometry (AID 362). actives 1% (n = 4,300). U937-FPR cells, fMLFK-FITC displacement, flow cytometry; stronger effect = higher value; test concentration not given here; most inactive calls were filed without a number and no value below 0 was filed. inhibition, %;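 active means inhibition of labelled peptide binding to the formyl peptide receptor of at least 65%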;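 further: plate controls were buffer control wells for no effect and unlabeled fMLFF blocking peptide for full effect; higher means less cell fluorescence so more probe displaced; part of the set was picked by virtual screening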
# Starred values were filed as active, the others as inactive; i = inactive. Not all compounds are listed; the hit share may differ from the screen's.
SMILES,FPR binding
O=C(NCc1ccccc1Cl)C1CCC(Cn2c(SCC(=O)N3CCCC3)nc3ccccc3c2=O)CC1 (centres undefined),i
COc1cc(OC)c(OC)cc1/C=C1\CC(C(C)(C)C)C/C(=C\c2cc(OC)c(OC)cc2OC)C1=O (centres undefined),i
CC(C)c1ccc(NC(=O)C(c2cc3c(cc2[N+](=O)[O-])OCO3)N2CCC(Cc3ccccc3)CC2)cc1 (centres undefined),i
CCCCCn1c(SC(C(=O)NCc2ccccc2)C(=O)NCc2ccccc2)nc2cc(C(=O)OC)ccc2c1=O,i
CCCCc1cc(=O)oc2cc(OC(C(=O)OCC)c3ccccc3)c(Cl)cc12 (centres undefined),i
CCC(C)C(NC=C1C(=O)OC(C)(C)OC1=O)C(=O)O (centres undefined),i
CC1CCN(S(=O)(=O)N2CCC(C(=O)NCc3ccc(F)cc3Cl)CC2)CC1,i
CC1(C)CC(=O)C2=C(C1)OC(c1cc([N+](=O)[O-])ccc1O)C(C#N)=C2N (centres undefined),i
CCOC(=O)CN1C(=O)C2(C(C#N)=C(N)OC3=C2C(=O)CC(C)(C)C3)c2ccccc21 (centres undefined),12
CCN(CCCNC(=O)Cn1cnc2sc(C)c(S(=O)(=O)N3CCC(C)CC3)c2c1=O)Cc1ccccc1,i
CC1=C(C(=O)OCC(C)C)C(c2cccc([N+](=O)[O-])c2)N2C(=O)CCSC2=N1 (centres undefined),17
CCOC(=O)c1c(NC(=O)C2C3C=CC(CC3)C2C(=O)O)sc2c1CCCC2 (centres undefined),4
Cc1ccnc(NC(=O)C(NC(=O)C2CCC(C)CC2)C(C)C)c1 (centres undefined),i
CC1=C(C(=O)OCCCc2ccccc2)C(c2ccccc2C(F)(F)F)CC(=O)N1 (centres undefined),i
CCCCOC(=O)C1=C(C)NC(=O)NC1c1ccc(OC)c(Br)c1 (centres undefined),1
CC(C)Cn1cc(C(=O)N2CCN(c3ccccn3)CC2)c2c3ccccc3n(C)c2c1=O,i
Cc1nn(C(C)(C)C)c(OC(=O)C2CCCC2)c1Sc1ccccc1[N+](=O)[O-],i
CCCc1cc(=O)[nH]c(SCC(=O)Nc2ccc(OCC)cc2)n1,28
O=C1C2C3C=CC(C3)C2C(=O)N1c1ccc(NCCC(c2ccccc2)c2ccccc2)c([N+](=O)[O-])c1 (centres undefined),9
O=S(=O)(NC1CCCCCCC1)c1cccc2nsnc12,i

# Among those listed so far, two contain fluorine:
SMILES,FPR binding
CC1CCN(S(=O)(=O)N2CCC(C(=O)NCc3ccc(F)cc3Cl)CC2)CC1,i
CC1=C(C(=O)OCCCc2ccccc2)C(c2ccccc2C(F)(F)F)CC(=O)N1 (centres undefined),i

# Next part.
SMILES,FPR binding
CCN(CC)c1ccc(NC(=O)c2nc3nc(C)cc(C(F)F)n3n2)cc1,i
CC1(C)CC(=O)C(C=Nc2ccccc2O)=C(O)C1,i
N#CCCN(C(=O)c1cc(Cl)ccc1NS(=O)(=O)c1cccc2nsnc12)C1CCCCC1,73*
CCC(C)(C(=O)NC1CCCC1)N(Cc1cccs1)C(=O)CC1NC(=O)NC1=O (centres undefined),5
CCCCn1c(SCC(=O)Nc2ccc(C(C)C)cc2)nc2ccc(N3CCOCC3)cc2c1=O,i
CC(C)CN(CC(C)C)S(=O)(=O)N1CCC(C(=O)NC2CC2)CC1,i
CC(=O)OCC12COC(c3ccc(N(C)C)cc3)C(C(C)=CC1C)C2C (centres undefined),i
COc1cc(C2C(C#N)=C(N)N(c3ncn[nH]3)C3=C2C(=O)CC(C)(C)C3)ccc1OCc1ccccc1 (centres undefined),4
Cc1cccc(C)c1NC(=O)C1(NC(=O)c2cnccn2)CCCC1,i
C=CCN=C1CC(C)(C)CC(=O)/C1=C(\O)CCC(=O)OC,i
CCCC(=O)Oc1ccc(C2C(C#N)=C(N)OC3=C2C(=O)CC(C)(C)C3)cc1 (centres undefined),i
CCCc1cc2c(=O)c(-c3nc(C)cs3)c(C)oc2cc1OC(C)=O,73*
CCOC(=O)N1CCN(C(=O)c2cn(CC(C)C)c(=O)c3c2c2ccccc2n3C)CC1,5
CC(C)C(C(=O)OCC(=O)c1ccc([N+](=O)[O-])cc1)N1C(=O)C2C3CCC(C3)C2C1=O (centres undefined),i
COc1ccc(C2(CNC(=O)c3cc4ccccc4o3)CCCCC2)cc1OC,11
COc1cccc(C2C3=C(CC(C)(C)CC3=O)Nc3ncnn32)c1OC (centres undefined),i
CC1(C)CC(=O)C2=C(C1)OC(N)=C(C#N)C2c1ccc(Br)cc1 (centres undefined),11
Cc1ccc2cc3cc(C(=O)N4CCCCCC4)sc3nc2c1,10
CCOC(=O)C1=C(C)NC2=C(C(=O)C(C(=O)OC)C(C)C2)C1c1ccc(OC)cc1OC (centres undefined),16
COc1ccc(C2(C(=O)NCC3(c4ccccc4)CCCC3)CCCC2)cc1OC,i
CCCS(=O)(=O)c1c(S(=O)(=O)CCC)c2cc(CC)ccn2c1C(=O)c1ccccc1,i
COc1ccc(S(=O)(=O)N2CCCC(C(=O)N3CCCCC3)C2)cc1 (centres undefined),10
COc1ccc(F)cc1CN1CCN(c2c3c(c(C#N)c4nc5ccccc5n24)CCC3)CC1,0
CCN(CC)C(=O)c1cc2c(n(-c3ccc(Cl)cc3)c1=O)CC(C)(C)CC2=O,i
CC(C)(C)c1ccc(Oc2c(C(F)(F)F)oc3c(CN4CCCC4)c(O)ccc3c2=O)cc1,14
O=C1C2C3C=CC(C3)C2C(=O)N1c1ccc(NCCc2ccccc2)c([N+](=O)[O-])c1 (centres undefined),i
CCSCCOC(=O)C1=C(C)NC2=C(C(=O)C(C(=O)OC)C(C)C2)C1c1ccccc1[N+](=O)[O-] (centres undefined),2
O=C1/C(=C/c2ccc3nccnc3c2)CCC/C1=C\c1ccc2nccnc2c1,i
O=C(Oc1ccc2c3c(c(=O)oc2c1)CCC3)c1ccco1,12
CCN(C(=O)c1cn(CC(C)C)c(=O)c2cc(OC)c(OC)cc12)c1cc(Cl)ccc1OC,1
COc1ccccc1C1C2=C(CC(C)(C)CC2=O)Nc2nnnn21 (centres undefined),4
CC(=O)N1c2ccc(S(=O)(=O)N(CC(C)C)CC(C)C)cc2CC1C (centres undefined),i
O=C(N1CCOCC1)C12CC3CC(C1)CC(C(=O)N1CCOCC1)(C3)C2,2
CCCCn1c(=NC(=O)c2cc3ccccc3o2)c(C(=O)OCC)cc2c(=O)n3ccccc3nc21,i
COc1ccc(C2(C(=O)NCC3(c4ccccc4)CCOCC3)CCCC2)cc1OC,1
COc1cccc2c1OC13CCCCC1C2/C(=C(O)\C=C\c1ccc(OC)c(OC)c1OC)C(=O)N3 (centres undefined),i
CCOc1ccc(C2NC(=O)NC(C)=C2C(=O)OCCC(C)C)cc1 (centres undefined),i
CC(C)Cn1cc(C(=O)N2CCOCC2)c2c3ccccc3n(C)c2c1=O,i
CC(C)C1=CC23CCC4C(C)(C(=O)O)CCCC4(C)C2CC1C1C(=O)N(Cc2ccccc2)C(=O)C13 (centres undefined),38
CC(C)(C)c1cc(CN(Cc2cc(C(C)(C)C)c(O)c(C(C)(C)C)c2)C2CCCCC2)cc(C(C)(C)C)c1O,i
CCCC1=C(C(=O)OCC)C(c2ccc([N+](=O)[O-])cc2)NC(=O)N1C (centres undefined),i
CCSCCOC(=O)C1=C(C)NC2=C(C(=O)C(C(=O)OC)C(C)C2)C1c1ccc(C)o1 (centres undefined),32
O=C(Nc1nccs1)c1cc(N2C(=O)C3C4CCC(C4)C3C2=O)ccc1Cl (centres undefined),i
CCSCCOC(=O)C1=C(C)NC2=C(C(=O)C(C(=O)OC)C(C)C2)C1c1ccc2ccccc2c1 (centres undefined),12
COc1cc(C2NC(=O)NC(C)=C2C(=O)OCC2CCCCC2)cc(Cl)c1O (centres undefined),i
CCOc1cccc(C2C(C(=O)OC(C)CC)=C(C)NC3=C2C(=O)C(C(=O)OC)C(C)C3)c1 (centres undefined),10
CC1=C(C(=O)OC2CCCCCC2)C(c2ccc(O)c([N+](=O)[O-])c2)NC(=O)N1 (centres undefined),40
CCOC(=O)c1cc2c(=O)n3ccccc3nc2n(CC(C)C)c1=NC(=O)c1ccc(OC)cc1OC,i
N#CC1=C(SCC(=O)Nc2ccc(F)cc2)NC(=O)C(C#N)C12CCCCC2 (centres undefined),16
Cc1ccc(S(=O)(=O)NCC2CCC(C(=O)NCC(C)c3ccccc3)CC2)cc1 (centres undefined),i
# Other results
SMILES,FPR binding
Cc1ccccc1C(=O)NC1(C(F)(F)F)C(=O)Nc2c1c(=O)[nH]c(=O)n2-c1ccc(F)cc1 (centres undefined),12
CCOC(=O)c1cnc2cc(Cl)c(OC)cc2c1NCCC1=CCCCC1,1
CC(C)C(C(=O)OCC(=O)c1cccc([N+](=O)[O-])c1)N1C(=O)C2C3C=CC(C3)C2C1=O (centres undefined),i
CCOC(=O)C1=C(C)NC2=C(C(=O)C(C(=O)OC)C(C)C2)C1c1ccccc1 (centres undefined),1
COc1ccc(C2NC(=O)NC(C)=C2C(=O)OC2CCCC2)cc1Br (centres undefined),i
CC(C)Cn1cc(C(=O)N2CCN(Cc3ccc4c(c3)OCO4)CC2)c2c3ccccc3n(C)c2c1=O,19
CC(=O)N1CCc2cc(S(=O)(=O)NC(C(=O)Nc3ccc(Cl)cc3)C(C)C)ccc21 (centres undefined),i
CCOc1ccccc1C1C(C(=O)OC2CCCCCC2)=C(C)NC2=C1C(=O)C(C(=O)OC)C(C)C2 (centres undefined),i
CC(C)CN(CC(C)C)S(=O)(=O)N1CCC(C(=O)N2CCCCC2)CC1,i
COc1ccccc1N1CCN(S(=O)(=O)c2ccc(F)c(C(=O)Nc3ccc(Cl)cc3C(F)(F)F)c2)CC1,0
O=C(CSc1nc2ccccc2c(=O)n1CC1CCC(C(=O)NCc2ccccc2)CC1)NC1CCCCC1 (centres undefined),i
Cc1ccc(C(=O)COc2cccc(N3C(=O)C4C5CCC(C5)C4C3=O)c2)cc1 (centres undefined),2
COC(=O)C1C(=O)C2=C(CC1C)NC(C)=C(C(=O)OC(C)C)C2c1ccccc1C (centres undefined),6
CCC(C)NC(=O)CSc1nc2ccccc2c(=O)n1CC1CCC(C(=O)NCCc2ccccc2)CC1 (centres undefined),i
CCCCN(CC)C(=O)c1sc2ncn(CC(=O)Nc3cccc(C(F)(F)F)c3)c(=O)c2c1C,i
CC1=C(C(=O)OC2CCCCC2)C(c2ccc(Cl)c([N+](=O)[O-])c2)C2=C(CCCC2=O)N1 (centres undefined),i
Cc1sc2ncnc(N3CCC(C)CC3)c2c1S(=O)(=O)N1CCOCC1,i
O=C(O)C1C2C=CC(C2)C1C(=O)N1CCN(C/C=C/c2ccccc2)CC1 (centres undefined),i
CCOC(=O)C1=C(N)OC2=C(C(=O)CC(C)(C)C2)C1c1cc([N+](=O)[O-])c(C)s1 (centres undefined),i
O=C(O)C1C2C=CC(C2)C1C(=O)N1CCOCC1 (centres undefined),i
CC(CN1C(=O)C2C3C=CC(C2C1=O)C1C2C(=O)N(CC(C)c4ccccc4)C(=O)C2C31)c1ccccc1 (centres undefined),0
CC1=CC(C)(C)N(C(=O)CCN2C(=O)c3ccccc3C2=O)c2ccc(OC(=O)CCN3C(=O)c4ccccc4C3=O)cc21,i
CN1C(=O)CC(c2ccc(Cl)cc2)C2=C1CC(C)(C)CC2=O (centres undefined),i
CC(=O)Oc1ccc2c3c(c(=O)oc2c1C)CCC3,24
COc1ccc(C2C(C(=O)N3CC(C)CC(C)C3)c3ccccc3C(=O)N2C)cc1OC (centres undefined),i
CCOC(=O)CC(C(C)C)N(Cc1ccc(Cl)c([N+](=O)[O-])c1)S(=O)(=O)c1ccc(F)c(C)c1 (centres undefined),i
COc1ccc(S(=O)(=O)NC(CC(=O)NCc2ccco2)C(C)C)cc1 (centres undefined),i
N#CC1=C(N)N2C(=C(C#N)C13CCCCC3)SC1CCCCC12O (centres undefined),i
COC(=O)CC/C(O)=C1\C(=O)CC(C)(C)CC1=NCCc1ccc(OC)c(OC)c1,3
COc1ccccc1-c1c(C(F)(F)F)oc2c(CN3CCC(C)CC3)c(O)ccc2c1=O,i
COc1ccc(NC(=O)CCCn2c(=O)c3sccc3n(Cc3cc(=O)n4cc(Cl)ccc4n3)c2=O)cc1,3
COc1ccccc1NC(=O)C(C(C)C)N1C(=O)c2ccccc2C1=O (centres undefined),23
N#Cc1cc2c(=O)n3ccccc3nc2n(C2CCCCC2)c1=N,5
Cc1c(N(C(=O)CNC(=O)c2ccccc2)C2(C(=O)NC3CCCC3)CCCCC2)c(=O)n(-c2ccccc2)n1C,i
O=c1cc2oc3cc(O)c(O)cc3c(-c3ccccc3[N+](=O)[O-])c-2cc1O,4
CC1=C(C(=O)OCC(C)C)C(c2ccc([N+](=O)[O-])cc2)NC(=O)N1 (centres undefined),i
COc1ccc(C2c3sc(=O)[nH]c3SC3C4CC(C5C(=O)N(c6ccc(Cl)cc6)C(=O)C45)C23)cc1OC (centres undefined),4

# Arranged by length of the SMILES (largest number first): some entries from above
SMILES,FPR binding
Cc1c(N(C(=O)CNC(=O)c2ccccc2)C2(C(=O)NC3CCCC3)CCCCC2)c(=O)n(-c2ccccc2)n1C,i
COC(=O)CC/C(O)=C1\C(=O)CC(C)(C)CC1=NCCc1ccc(OC)c(OC)c1,3
O=c1cc2oc3cc(O)c(O)cc3c(-c3ccccc3[N+](=O)[O-])c-2cc1O,4
CC1=C(C(=O)OCC(C)C)C(c2ccc([N+](=O)[O-])cc2)NC(=O)N1 (centres undefined),i
COc1ccccc1NC(=O)C(C(C)C)N1C(=O)c2ccccc2C1=O (centres undefined),23
N#CC1=C(N)N2C(=C(C#N)C13CCCCC3)SC1CCCCC12O (centres undefined),i
N#Cc1cc2c(=O)n3ccccc3nc2n(C2CCCCC2)c1=N,5

# Screens: PubChem, NMMLSC
